High-throughput results deposited in PubChem by Johns Hopkins Ion Channel Center.
KCNQ2 block – KCNQ2 potassium channel inhibitors, primary screen, cell-based, CHO-K1, FluxOR thallium flux, B-score (AID 2156) | Potassium voltage-gated channel subfamily KQT member 2 (Rattus norvegicus), O88943 | 20 min; active compounds read low; only compounds with negative scores are shown here; some inactives read as strong as hits | B-score at 10 µM | actives 1.1% (n = 310,000);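 active means fluorescence ratio B-score at most minus 3 library SDs, with starting brightness B-score within 2 library SDs, cut at about -5.5 in these data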
Target sequence (O88943 whole entry, looked up): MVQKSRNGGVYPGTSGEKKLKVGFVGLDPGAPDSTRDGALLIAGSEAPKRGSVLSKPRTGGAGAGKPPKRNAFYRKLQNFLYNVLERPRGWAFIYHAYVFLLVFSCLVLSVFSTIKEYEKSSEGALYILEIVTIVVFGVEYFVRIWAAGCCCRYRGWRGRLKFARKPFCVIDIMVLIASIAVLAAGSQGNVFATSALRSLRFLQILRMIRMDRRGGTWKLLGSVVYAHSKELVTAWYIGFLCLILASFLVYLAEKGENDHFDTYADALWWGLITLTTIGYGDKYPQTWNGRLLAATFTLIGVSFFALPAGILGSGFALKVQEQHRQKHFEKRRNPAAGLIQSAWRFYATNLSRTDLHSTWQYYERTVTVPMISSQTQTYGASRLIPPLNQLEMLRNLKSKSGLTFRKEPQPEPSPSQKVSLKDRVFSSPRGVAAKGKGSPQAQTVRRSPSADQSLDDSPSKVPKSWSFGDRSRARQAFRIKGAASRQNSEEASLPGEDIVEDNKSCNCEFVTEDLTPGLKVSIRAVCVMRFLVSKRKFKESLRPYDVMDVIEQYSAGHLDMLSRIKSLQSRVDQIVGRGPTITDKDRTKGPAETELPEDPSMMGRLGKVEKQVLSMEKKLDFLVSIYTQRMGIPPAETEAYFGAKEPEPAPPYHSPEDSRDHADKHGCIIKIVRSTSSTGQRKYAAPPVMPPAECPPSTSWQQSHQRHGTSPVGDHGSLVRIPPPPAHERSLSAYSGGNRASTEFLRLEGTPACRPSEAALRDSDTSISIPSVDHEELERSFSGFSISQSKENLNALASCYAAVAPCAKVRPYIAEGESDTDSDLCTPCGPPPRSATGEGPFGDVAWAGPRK
KCNQ2 block baseline – further read-out of KCNQ2 block, marked with its call; B-score; measured here: initial fluorescence intensity artifact check;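 brightness before thallium and not channel activity; 0 = typical well and far values either way flag optical interference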
Numbers without * were called inactive; i = inactive.

SMILES	KCNQ2 block	KCNQ2 block baseline
COC(=O)COn1c(-n2nc(C)cc2C)nc2ccccc2c1=O	i	0.59
CCOc1ccc(C(=O)NC(Cc2ccccc2)C(=O)OC)cc1 (stereo not given)	i	0.39
NS(=O)(=O)c1ccc(NC(=O)COC(=O)c2cnccn2)cc1	i	0.55
CCC(C)c1ccc(NC(=O)Nc2cnccn2)cc1 (stereo not given)	i	-0.79
CCC(C)(C)n1nnnc1C(c1cc(OC)c(OC)c(OC)c1)N1CCN(c2ccccc2)CC1 (stereo not given)	i	-1.2
COc1ccc(NC(=O)Cc2coc3cc(C)ccc23)cn1	i	0.6
S=C(NCCc1ccccc1)NCC(c1ccco1)N1CCCCC1 (stereo not given)	i	-0.28
O=C(CCCc1nc2ccccc2s1)NCc1ccc(F)cc1	i	-0.93
O=S(=O)(NCc1cccnc1)c1ccc(Br)s1	i	1.1
CCC(=O)Nc1nnc(S(=O)(=O)N(C)c2cc(C)cc(C)c2)s1	i	-2.3
CCOc1ccc(N(CC(=O)NC2CCCCC2)C(=O)CCC(=O)Nc2cc(C)ccn2)cc1	i	-0.99
Cc1ccc(OCC(O)Cn2c(NCCc3ccccc3)nc3c2c(=O)[nH]c(=O)n3C)cc1 (stereo not given)	i	0.84
COc1ccccc1CNc1cc(CSc2ccc(Cl)cc2)nc(C)n1	-6.1*	-1.5*
Cc1ccc(CS(=O)(=O)Cc2ccc(C(=O)NCc3ccccn3)o2)cc1	i	1
Cc1ccc2nc(N(CCCN(C)C)C(=O)c3ccco3)sc2c1	i	-1.7
Cn1c(=O)n(CC(=O)N2CCN(c3nnc(-c4ccccc4)c4ccccc34)CC2)c2ccccc21	i	-1.2
CCn1c(=O)c(C(=O)NCc2ccc3c(c2)OCO3)c(O)c2ccccc21	i	0.83
O=C(O)c1ccc(S(=O)(=O)c2ccc3c(c2)C(=O)N(NC(=O)c2ccccc2)C3=O)cc1	i	-0.93
COc1cccc(N(CC(=O)NC2CCCC2)C(=O)CCC(=O)Nc2cc(C)on2)c1	i	1.7
O=C(Nc1cccc(Cl)c1)Nc1c[nH]c(=O)[nH]c1=O	i	1.4
CC(C)Oc1nc(-c2ccc(Cl)cc2)nc2ccccc12	i	-2
Cc1ccccc1Cn1cc(NS(=O)(=O)c2cn(C)nc2C)cn1	i	0.42
O=C(O)c1ncc(Cl)c(Cl)c1Cl	i	-0.02
Cc1cccc(S(=O)(=O)NC(Cc2c[nH]c3ccccc23)C(=O)O)c1 (stereo not given)	i	-1
Cc1ccc([N+](=O)[O-])cc1NC(=O)CCCOc1ccccc1	i	0.07
O=S(=O)(Nc1ccc(S(=O)(=O)Nc2cccc3ccccc23)cc1)c1ccccc1	i	0.98
COc1ccccc1C(CNC(=O)C(C)(C)Oc1ccc(Cl)cc1)N1CCCC1 (stereo not given)	i	-0.44
CC(C)OC(=O)/C(=C/c1ccc2c(c1)c1ccccc1n2C)NC(=O)c1ccccc1	i	0.92
Cc1oc(C)c(C(=O)O)c1COc1ccc(C(=O)O)cc1	i	0.35
COc1ccc(CCNC(=O)c2cc(=O)c3cc(C)ccc3o2)cc1	i	0.03

Six records picked at random from those above, as already listed:
SMILES	KCNQ2 block	KCNQ2 block baseline
O=S(=O)(Nc1ccc(S(=O)(=O)Nc2cccc3ccccc23)cc1)c1ccccc1	i	0.98
COc1ccc(CCNC(=O)c2cc(=O)c3cc(C)ccc3o2)cc1	i	0.03
CC(C)Oc1nc(-c2ccc(Cl)cc2)nc2ccccc12	i	-2
O=C(Nc1cccc(Cl)c1)Nc1c[nH]c(=O)[nH]c1=O	i	1.4
O=C(O)c1ccc(S(=O)(=O)c2ccc3c(c2)C(=O)N(NC(=O)c2ccccc2)C3=O)cc1	i	-0.93
Cn1c(=O)n(CC(=O)N2CCN(c3nnc(-c4ccccc4)c4ccccc34)CC2)c2ccccc21	i	-1.2

The list continues.
SMILES	KCNQ2 block	KCNQ2 block baseline
COc1cccc(/C=N/NC(=O)CCc2n[nH]c(=O)[nH]c2=O)c1O	i	0.76
CC(=O)NC(CC(=O)OC(C)C(=O)Nc1ncc(Cl)cc1Cl)c1ccccc1 (stereo not given)	i	-0.02
CC(C)(C)N(Cc1ccccc1)C(=O)COC(=O)CSc1ccc([N+](=O)[O-])cc1	i	0.16
O=C(O)CCC(=O)NNC(=O)c1cccc(Cl)c1	i	1.6
O=C(c1cc(-c2ccc(Cl)cc2)on1)N1CCN(c2ccc(F)cc2)CC1	i	0.1
CCc1cc(CNC(=O)c2cccc(OC3CCN(S(C)(=O)=O)CC3)c2)on1	i	-1.1
COc1ccccc1-n1c(SCC(N)=O)nnc1-c1ccccc1	i	0.58
COc1ccc(NC(=O)CSc2nnc(CNC(=O)c3ccco3)o2)cc1	i	-0.42
Cc1ccc(C2=NN(C(=O)CN3C(=O)c4ccccc4S3(=O)=O)C(c3ccco3)C2)cc1 (stereo not given)	i	-0.03
Cc1cccc(Oc2coc3cc(OC(=O)c4cc5ccccc5oc4=O)ccc3c2=O)c1	i	0.68
Cc1ccc(/C=C2\SC(N3CCN(C(c4ccccc4)c4ccccc4)CC3)=NC2=O)o1	i	4.8
CC1(c2nnc(-c3cccc(Cl)c3)o2)CC(c2ccc(Cl)cc2)=NO1 (stereo not given)	i	-0.06
CCN(c1ccccc1)S(=O)(=O)c1ccc2c(c1)CC(C)N2C(=O)C1CC1 (stereo not given)	i	-0.03
COc1ccccc1N/N=C/c1ccc2c(c1)OCO2	i	1.2
O=C1CCCc2oc3c(cc(NS(=O)(=O)c4ccc5c6c(cccc46)C(=O)N5)c4ccccc43)c21	i	0.02
Cc1ccc(CN(C)C(=O)c2ccccc2Oc2ccccc2)o1	i	-0.57
CCOc1ccc(OCCCC(=O)NCCc2ccc(OC)cc2)cc1	i	-0.03
Nc1c(C(=O)Nc2ccccc2)c2nc3ccccc3nc2n1CCCN1CCOCC1	i	-0.3
Cc1c(NS(=O)(=O)c2cc(C(=O)NCC3CCCO3)cc(Cl)c2Cl)c(=O)n(-c2ccccc2)n1C (stereo not given)	i	2.4
Cc1nn(C)c(C(=O)NNC(=S)Nc2ccc(Cl)cc2)c1[N+](=O)[O-]	i	0.94
COc1cccc2c1c(NC(=O)c1cc(C)on1)nn2C	i	-0.63
O=C(NCc1ccccc1F)C(=O)NCC1OCCCN1S(=O)(=O)c1cccs1 (stereo not given)	i	0.76
COCCn1c(N)c(NCc2ccccc2)c(=O)n(CC(=O)Nc2cc(C)ccc2C)c1=O	i	0.2
CCOC(=O)/C(=N\Nc1cc(Cl)ccc1Cl)N1CCN(C)CC1	i	-0.33
O=C(CN1CCCCC1)Nc1ccccc1Cl	i	0.02
Cc1cccc(NS(=O)(=O)c2ccc(-n3cccn3)cc2)c1C	i	-0.39
O=C1C(Cc2ccccc2)Nc2ncnc(N3CCCCC3)c2N1Cc1ccc(Cl)cc1 (stereo not given)	i	1.1
OCc1nc2ccccc2n1CCc1ccccc1	i	0.35
CCn1cnc2sc(C(=O)Nc3ccccc3OC)c(C)c2c1=O	i	0.75
CC1CN(/C=C/C(=O)C(F)(F)F)CC(C)O1 (stereo not given)	i	0.92
C=CCNC(=S)NC(=O)c1oc2ccccc2c1C	i	0.01
CCOc1ccccc1-n1nnnc1SCC(=O)OC	i	0.77
Cc1ccc(NC(=O)CCN2C(=O)c3cccc([N+](=O)[O-])c3C2=O)c(Br)c1	i	1.2
CC(c1ccccc1)N(CCC(c1ccccc1)C1CCOC(C)(C)C1)C(=O)c1ccco1 (stereo not given)	i	1.6
O=C1CC2(CCN(C(=O)COc3ccc(Cl)cc3)CC2)Oc2ccccc21	i	-0.78
CCc1cc2c(=O)c(-c3nc4ccccc4n3C)c(C)oc2cc1OC(C)=O	i	0.4
Fc1ccccc1N1CCN(c2nnnn2-c2ccccc2)CC1	i	-0.82
Cc1cc(N2CC(C(=O)NCc3cccnc3)CC2=O)ccc1C(C)C (stereo not given)	i	-2.4
CSc1ccc(Cl)c(C(=O)Nc2ccc(N3CCOCC3)cc2)c1	i	-0.13
CN(c1ccccc1)S(=O)(=O)c1ccc(C(=O)NCc2ccccn2)cc1	i	0.01
Cc1nc(NCc2ccccc2)c(C(N)=O)c2c1COC(C)(C)C2	i	1.4
O=C(Nc1ccccc1)Nc1ccc(C(F)(F)F)cn1	i	3
CCc1ccccc1NC(=O)C(Cc1cccc(OC)c1OC)c1nn[nH]n1 (stereo not given)	i	-0.14
Cc1cc(C)cc(NC(=O)C(C)N2C(=O)c3ccccc3C2=O)c1 (stereo not given)	i	0.81
CC(=O)Nc1ccc(NC(=O)c2ccccc2Nc2ccccc2)cc1	i	-0.02
O=C(CCc1nc2ccccc2c(=O)[nH]1)Nc1nnc(SCc2ccc(Cl)cc2)s1	i	3.2
CC(C)Cn1c(=S)[nH]c2cc(C(=O)O)ccc2c1=O	i	-0.36
Cc1ccccc1NC(=O)CNC(=O)Cc1cccc2ccccc12	i	-0.02
O=S(=O)(c1ccc(F)c(F)c1)N1CCCc2ccccc21	i	-0.13
CC(C)(C)NS(=O)(=O)c1ccc(NS(C)(=O)=O)cc1	i	0.05
Cc1ccccc1OCC(=O)NNC(=O)c1ccc2c(=O)n3c(nc2c1)CCC3	i	1.7
COC(=O)CN1C(=O)[C@H]2[C@@H](c3ccc(C)o3)N3C(=O)CN(CCO)C(=O)[C@@]3(Cc3ccccc3)[C@H]2C1=O	i	-0.25
CCOC(=O)Cc1csc(NC(=O)CSc2nnc(C(C)C)n2C)n1	i	0.79
COc1ccc(NC(=O)C(C)N2C(=O)c3ccccc3C2=O)c(OC)c1 (stereo not given)	i	1.7
COc1ccccc1C(=O)NCCC(=O)NCC(C)(C)N1CCOCC1	i	2
COc1ccc(CNC(=O)CSc2n[nH]c(C)c2[N+](=O)[O-])cc1	i	0.03
Cc1cc(C)cc(N2CC(C(=O)NC3CCCCC3)CC2=O)c1 (stereo not given)	i	0.77
COc1cc2c(cc1OC)C(C)N(C(=O)c1cc3c(s1)-c1ccccc1OC3)CC2 (stereo not given)	-8.4*	-2.2*
CN(C)CCNC(=O)c1[nH]nc2c1CCc1ccccc1-2	i	0.01
Cc1ccc(S(=O)(=O)NCCC(=O)Nc2cc(F)ccc2C)cc1C	i	-0.98
Next section
SMILES	KCNQ2 block	KCNQ2 block baseline
COC(=O)c1c(NC(=O)C2CCCO2)sc2c1CCC2 (stereo not given)	i	-1.3
Cc1ccc(NCc2nnc(SCC(=O)N(Cc3ccccc3)C(C)(C)C)o2)c(C)c1	i	0.17
COc1cccc2cc(C(=O)NCc3ccccn3)c(=O)oc12	i	1.5
O=C(NN=C1CCCC1)c1sc2ccccc2c1Cl	i	-1.1
CC(C)(CSc1ccccn1)NS(=O)(=O)c1ccc(Cl)cc1	i	0.08
COc1ccc(C(CC(=O)Nc2ccc(F)cc2)c2ccccc2)cc1 (stereo not given)	i	-0.68
CCN(CC)c1ccc(C(=S)N2CCN(c3ccccc3)CC2)cc1	i	0.58
COCc1cc(C)[nH]c(=O)c1C(=O)NC12CC3CC(CC(C3)C1)C2	i	-2.1
Cc1cc(C)cc(NC(=O)C(OC(=O)c2cccs2)c2ccccc2)c1 (stereo not given)	i	-0.51
C[C@@H]1CN(C(=O)c2nc3ccc(Cl)cn3c2CN2CCc3sccc3C2)C[C@H](C)O1	i	1
CC(=O)c1ccc(N2CCN(C(=S)Nc3ccccc3F)CC2)cc1	i	2.8
Cc1cccc([C@@H]2C[C@H]3CN(Cc4cccc(Cl)c4)C(=O)[C@]34CCCN24)n1	i	0.69
CN(Cc1ccccc1)Cc1nc2scc(-c3ccccc3)c2c(=O)[nH]1	i	-0.07
O=S(=O)(c1ccc(Cl)cc1)c1cnc2ccccc2n1	i	-0.99
CCOC(=O)CNC(=S)N(Cc1ccccc1F)C1CCCCC1	i	0.03

Some of the entries so far, with values ahead of the structure.
| KCNQ2 block | KCNQ2 block baseline | mol |
| --- | --- | --- |
| i | 0.03 | CCOC(=O)CNC(=S)N(Cc1ccccc1F)C1CCCCC1 |
| i | -0.68 | COc1ccc(C(CC(=O)Nc2ccc(F)cc2)c2ccccc2)cc1 (stereo not given) |
| i | 0.58 | CCN(CC)c1ccc(C(=S)N2CCN(c3ccccc3)CC2)cc1 |
| i | -0.51 | Cc1cc(C)cc(NC(=O)C(OC(=O)c2cccs2)c2ccccc2)c1 (stereo not given) |
| i | -0.07 | CN(Cc1ccccc1)Cc1nc2scc(-c3ccccc3)c2c(=O)[nH]1 |
| i | 0.17 | Cc1ccc(NCc2nnc(SCC(=O)N(Cc3ccccc3)C(C)(C)C)o2)c(C)c1 |
| i | -2.1 | COCc1cc(C)[nH]c(=O)c1C(=O)NC12CC3CC(CC(C3)C1)C2 |

Going on with the list.
SMILES	KCNQ2 block	KCNQ2 block baseline
O=C(CSc1nnc(-c2ccc3c(c2)OCO3)n1-c1ccccc1)c1ccccc1	i	1.6
CN(C(=O)C1CCCC1)C1CCS(=O)(=O)C1 (stereo not given)	i	0.19
COCCNC(=O)CCc1ccc(S(=O)(=O)Nc2ccc(C)cc2)cc1	i	0.32
COc1ccc(-c2cc(-c3ccc(F)cc3)nc(N3CCN(C)CC3)n2)cc1	i	0.44
Cc1ccc([N+](=O)[O-])cc1N=C(c1cccc(Br)c1)N1CCOCC1	i	0.13
CC(Sc1nc(-c2ccccc2)cc(C(F)(F)F)n1)C(=O)N1CCCCC1 (stereo not given)	i	-1.6
COc1cccc(OCc2cc(C(=O)NCCc3cccc(C)n3)no2)c1	i	0.37
O=C(CNC(=O)N1CC(=O)Nc2ccccc21)NCc1cccc(Cl)c1	i	1.3
O=C1CC(N(CCc2ccccc2)C(=S)Nc2ccccc2)C(=O)N1c1ccccc1 (stereo not given)	i	1.2
O=C(CCc1ccccc1)Nc1ccccc1C(F)(F)F	i	0.78
O=C(NC(=S)NCc1ccc(F)cc1)c1ccccc1	i	-5.2
CCc1cc2c(=O)n(-c3ccc(C)cc3)cnc2s1	i	0.52
CC(Oc1ccc(F)cc1)C(=O)Nc1ccc2ccccc2c1 (stereo not given)	i	-0.39
CC(=O)C1=C(C)NC(SCC(N)=O)=C(C#N)C1CC(C)C (stereo not given)	i	0.68

An excerpt; count on the stated rates, not on these rows.
